NPYLR7 ag = activates Aedes aegypti NPYLR7 receptor | HEK293T NPYLR7/Galpha15, GCaMP6s calcium fluorescence | activation, % at 10 µM | AID 1259423 | 0.15% of 270,000 active; in the data active = activation above about 40%;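 note: 0% = vehicle and 100% = reference agonist at the receptor; some compounds past the cut are filed as inactive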
NPYLR7 ag max-min = recorded beside NPYLR7 ag, whose call it bears; activation, %; measured here: Max-Min RFU normalised activation; some inactives read as strong as hits;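 span of the calcium signal over five minutes; 0% = vehicle and 100% = native peptide agonist; compound fluorescence can raise it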
Numbers without * were called inactive; & = joins results of further samples. An excerpt; the hit share may differ from the screen's.

SMILES	NPYLR7 ag	NPYLR7 ag max-min
COCCN1C(=O)C(c2c(C(C)C)[nH]n(-c3ccc(Cl)c(Cl)c3)c2=O)=C([n+]2cccc(C)c2)C1=O	8	12
c1cn(CCOc2ccc(CN3[C@H]4CCNC[C@@H]3CC4)cc2)cn1	7	-1
Cc1nnc(SCCn2c(N(C)Cc3ccccc3)nc3c2c(=O)[nH]c(=O)n3C)s1	-1	35
COc1ccc(-c2nc(N3CCCC3=O)sc2C)cc1	1	-1
O=c1[nH]c(=O)n([C@H]2C[C@H](O)[C@@H](CO)O2)cc1Br	5	-3
CNc1nc2cnc(Nc3cccc(C(C)=O)c3)cc2n1-c1ccccc1	4	-3
Cc1ccc(S(=O)(=O)N2CCC(NS(=O)(=O)CCc3ccccc3)CC2)cc1	3	2
CSc1ccccc1NC(=O)Cn1ccsc1=N	5	1
COc1ccc(NC(=O)c2sc(=O)n(Cc3ccc(C(F)(F)F)o3)c2C)cc1OC	12	3
O=C(O)c1c(-n2cccc2)sc2c1CCCC2	4	3
COCc1nc2cc(NC(=O)Cc3ccccc3)cc(C(=O)NCC3OCCc4ccccc43)c2n1C (stereo unspecified)	-5	-9
CC(=O)Nc1ccc(OCc2nnsc2Cl)cc1	1	0
COc1cc(NC(=O)N2CCC3(CC2)SCCN3C(=O)c2ccccc2)cc(OC)c1	13	27
O=C(CC(c1ccc(Cl)c(Cl)c1)c1c[nH]c2ccccc12)NC1CCCCC1 (stereo unspecified)	25	32
O=C(COC(=O)c1cccnc1)c1ccc(-c2ccccc2)cc1	0	8
Cc1cc(C)cc(N2CCCn3c2nc2c3c(=O)n(CC(=O)OCc3ccccc3)c(=O)n2C)c1	10	6
Cc1cccc(S(=O)(=O)NC(=O)C2(C)CCN2C(=O)COc2ccc(Cl)cc2)c1 (stereo unspecified)	3	3
O=[N+]([O-])c1cc(S(=O)(=O)NC2=NCCCCC2)ccc1Cl	1	3
C=CCc1cccc2cc(C(=O)N(C)C)c(=O)oc12	10	6
CS(=O)(=O)Cc1cccc(CNCc2cccc(O)c2)c1	1	9
O=C(NCc1ccc(F)cc1)c1cc(-c2ccccc2F)nc2cc(-c3ccccc3)nn12	4	5
CN(Cc1ccc(C(F)(F)F)cc1)C1CCN(c2cccc(NC(=O)c3ccncc3)c2)CC1	0	-2
Cc1ccc(S(C)(=O)=O)cc1NC(=O)c1c(Br)c(C)nn1C	8	3
CCCCCCCCCC(=O)N1CCc2nc(-c3ccccc3)nc(N3CCCC3)c2C1	0	5
CCN1C(=O)NC(c2ccc(Cl)cc2Cl)C2=C1CN(CCC(=O)N1CCN(c3ccccc3OC)CC1)C2=O (stereo unspecified)	-1	0
CC(O)CN(CCc1nc(-c2cccc(C(F)(F)F)c2)no1)Cc1ccco1 (stereo unspecified)	-2	0
COCc1cc(N2CCN(c3ccccc3Cl)CC2)nc(SCc2ccc(C(=O)NC3CC3)cc2)n1	2	2
CCC(CC)C(=O)Nc1cc(-c2cn3nc(OC)ccc3n2)ccc1OC	-6	-11
O=C1c2ccc(-c3nc4ccccc4c(=O)o3)cc2C(=O)N1c1cccnc1	4	13
CCCN(Cc1ccc(C)cc1)C(=O)Cn1cnc2ccc([N+](=O)[O-])cc2c1=O	-1	4
O=S(=O)(N1CCCC1)N1CCN(c2cc(C3CCNCC3)ncn2)CC1	-4	11
O=C(CN1CCCc2ccccc21)N/N=C\c1cccc([N+](=O)[O-])c1	1	0
CCCN(Cc1cc(N)ccc1N(C)C)S(=O)(=O)c1ccc(F)cc1	-2	-6
C=CCc1cccc(/C=N\NC(=O)c2cc(-c3ccccc3)nc3ccccc23)c1O	-4	-7
O=C(NC1CCN(c2ccccc2C(=O)N2CCCC2)CC1)c1cc(F)cc(F)c1	-1	3
Cc1nn(-c2cccc(F)c2)c(N2CCN(C(C)C)CC2)c1CN(C(C)C)S(C)(=O)=O	-15	-7
O=C(NCc1ccc2nonc2c1)c1ccccc1-c1ncc[nH]1	-1	-4
O=C(O)c1cccc(NC(=O)c2cccc(S(=O)(=O)N(CCO)CCO)c2)c1	21	20
Cc1nn(CCC#N)c(C)c1CCC(=O)NC1CCN(C2CCCCCC2)C1 (stereo unspecified)	5	15
Cc1ccc(NC(=O)CSc2c(C)[nH]c3ccccc23)cc1	3	2

Quoted at random: six records from the list, in no set order.
SMILES	NPYLR7 ag	NPYLR7 ag max-min
C=CCc1cccc(/C=N\NC(=O)c2cc(-c3ccccc3)nc3ccccc23)c1O	-4	-7
CCCN(Cc1cc(N)ccc1N(C)C)S(=O)(=O)c1ccc(F)cc1	-2	-6
Cc1ccc(NC(=O)CSc2c(C)[nH]c3ccccc23)cc1	3	2
O=C(O)c1cccc(NC(=O)c2cccc(S(=O)(=O)N(CCO)CCO)c2)c1	21	20
Cc1nn(-c2cccc(F)c2)c(N2CCN(C(C)C)CC2)c1CN(C(C)C)S(C)(=O)=O	-15	-7
O=C(NCc1ccc2nonc2c1)c1ccccc1-c1ncc[nH]1	-1	-4

(list continues)
SMILES	NPYLR7 ag	NPYLR7 ag max-min
Cc1cccn2c(CC(=O)NCCCn3nnc4ccccc43)cnc12	23	16
CC(=O)N1CCCN(C(=O)C2CCC(=O)N(Cc3ccc(Cl)cc3)C2)CC1 (stereo unspecified)	0	-4
Cn1c(CN2CCCc3c(NS(C)(=O)=O)cccc32)nc2cc(Cl)ccc21	9	5
Cc1ccc(CS(=O)(=O)Nc2ccc3c(c2)C(=O)N(C)c2ccccc2O3)cc1	9	6
CC(C)(C)C(=O)N1CCC(C(=O)n2nc(N)c3ccccc32)CC1	-1	-2
NC(=O)CSc1nnc(CCn2ccc(=O)[nH]c2=O)o1	1	0
CNCC(=O)N[C@H]1CCC[C@H]1Cc1ccc(F)cc1	4	-9
Cc1ccc2nc(CNC(=O)Cc3ccc4c(c3)OCO4)[nH]c2c1	-4	-5
O=C(c1cc(-c2ccco2)nn1-c1ccccc1Cl)N1CCN(C/C=C/c2ccccc2)CC1	17	15
CCOC(=O)c1c(NC(=O)c2nn(CC)cc2Br)c(C#N)cn1-c1ccccc1	-18	-20

Part of the list above in a different format.
smiles | NPYLR7 ag | NPYLR7 ag max-min
Cc1cccn2c(CC(=O)NCCCn3nnc4ccccc43)cnc12 | 23 | 16
CCOC(=O)c1c(NC(=O)c2nn(CC)cc2Br)c(C#N)cn1-c1ccccc1 | -18 | -20
Cn1c(CN2CCCc3c(NS(C)(=O)=O)cccc32)nc2cc(Cl)ccc21 | 9 | 5
CC(=O)N1CCCN(C(=O)C2CCC(=O)N(Cc3ccc(Cl)cc3)C2)CC1 (stereo unspecified) | 0 | -4

The results go on.
SMILES	NPYLR7 ag	NPYLR7 ag max-min
C=CCNC(=O)CSc1nnc(-c2ccccc2)c2sc(C)nc12	0	-2
Cc1ccc(NC(=O)N2CCCC(c3nnc(CC(C)(C)C)o3)C2)cc1 (stereo unspecified)	-5	-1
CC1CN(C(=O)c2csc(CSc3nnc(Cc4ccccc4)n3-c3cccc(C(F)(F)F)c3)n2)CC(C)O1 (stereo unspecified)	-3	-2
Cc1ccc(C)c(S(=O)(=O)c2cnc(SCC(=O)Nc3ccccc3C)[nH]c2=O)c1	10	8
CC(C)(Cc1ccc(F)cc1)NC(=O)c1cn2c(n1)CNCC2	3	0
Clc1nc(NCCN2CCOCC2)nc(Nc2ccc3c(c2)OCO3)n1	-8	-8
CN(Cc1ccccc1Br)C(=O)CN1CCN(c2ccc([N+](=O)[O-])c3cnccc23)CC1	1	-7
CCN1CCCN(C(=O)c2ccc(OCC3CC3)cc2)CC1	4	1
Cc1ccc(N=C2CCc3cccc(O)c32)cc1	-9	-11
Cc1ccc(F)c(NC2CCCN(C(=O)c3ccccc3C)C2)c1 (stereo unspecified)	-2	2
Cc1c(C(=O)NC2CCC(n3cnnc3)CC2)cnn1-c1ccccn1 (stereo unspecified)	19	12
CCC(C)Nc1cc(N(C)C)nc(N(C)C#N)n1 (stereo unspecified)	0	-1
COc1ccc(N2CCN(Cc3cc(=O)c(OC)cn3CC(=O)NC(C)C)CC2)cc1	0	-2
Cc1ccccc1Oc1cc(C(F)(F)F)nc(SCc2cccc(Cl)c2)n1	3	18
COc1ccc(C(=O)N2CCN(c3ccc(Cl)cc3)C(=O)C2C)cc1 (stereo unspecified)	-1	5
CC(=O)O[C@H]1[C@H](NC(=O)c2cc(C)oc2C)[C@H]2O[C@@H]1c1ccccc12	3	4
COc1ccc(Br)cc1S(=O)(=O)N1CCC(c2c[nH]c3ccc(C)cc23)CC1	4	-1
O=C1N=c2ccc(Br)cc2=C1c1sc(=S)n(NC(=O)c2ccc(Br)cc2)c1O	12	12
Cc1ccccc1Oc1cc(N2CCNC(C)C2)ncn1 (stereo unspecified)	14	11
N#Cc1cccc(C(=O)N2CCN(c3nccc(-c4cccc(C(F)(F)F)c4)n3)CC2)c1	-1	7
COc1ccc(NC(=O)c2cc3ccc(O)cc3oc2=O)cc1OC	-8	-14
CCN1CCN(c2ccccc2NS(=O)(=O)c2cc([N+](=O)[O-])cc(C)c2C)CC1	-3	-3
Cc1ccc(-n2nc(-c3ccccc3Cl)cc2C(=O)NCCc2ccc(Cl)cc2Cl)cc1	16	29
N#CC(C(=O)C1COc2ccccc2O1)c1nc2ccccc2s1 (stereo unspecified)	0	-4
Cc1ccc(C)c2sc(Cl)nc12	1	-9
COc1ccc(-c2nnc(NC(=O)C3CCCN3S(=O)(=O)c3cc(Cl)ccc3Cl)s2)cc1 (stereo unspecified)	1	13
Cc1ccc(C(=O)N2CCC(C(NC(=O)C3CCCC3)C(=O)N3CCCCC3)CC2)cc1 (stereo unspecified)	-2	3
O=C(/C=C\c1ccc2c(c1)OCO2)Nc1c2c(nn1-c1ccccc1)CSC2	-3	-5
CC(NC(=O)Nc1ccccc1)C(c1cccs1)N1CCN(c2ccccc2F)CC1 (stereo unspecified)	-5	-5
Cc1ccsc1[C@@H]1CCN(C(=O)c2ccc(C#CC(C)(C)O)o2)C[C@H]1O	3	1

Reprinted from the part before: seven entries, then new ones.
SMILES	NPYLR7 ag	NPYLR7 ag max-min
N#CC(C(=O)C1COc2ccccc2O1)c1nc2ccccc2s1 (stereo unspecified)	0	-4
Cc1ccc(C)c2sc(Cl)nc12	1	-9
COc1ccc(-c2nnc(NC(=O)C3CCCN3S(=O)(=O)c3cc(Cl)ccc3Cl)s2)cc1 (stereo unspecified)	1	13
Cc1ccc(C(=O)N2CCC(C(NC(=O)C3CCCC3)C(=O)N3CCCCC3)CC2)cc1 (stereo unspecified)	-2	3
O=C(/C=C\c1ccc2c(c1)OCO2)Nc1c2c(nn1-c1ccccc1)CSC2	-3	-5
CC(NC(=O)Nc1ccccc1)C(c1cccs1)N1CCN(c2ccccc2F)CC1 (stereo unspecified)	-5	-5
Cc1ccsc1[C@@H]1CCN(C(=O)c2ccc(C#CC(C)(C)O)o2)C[C@H]1O	3	1
CC(C)NC(=O)NC(=O)CSc1ncnc2sc3c(c12)CCCC3	12	2
COC(=O)C1=NOC2C(=O)N(c3ccc(Cl)cc3)C(=O)C12 (stereo unspecified)	10	10
Fc1cc(Br)ccc1N=Cc1ccco1	3	4
C=CCN(C(=O)c1ccc(CCCCC)cc1)C(C)C(=O)c1c(C)c(C(=O)OC)n(C)c1C (stereo unspecified)	-12	-2
CC(Oc1ccc(F)cc1)C(=O)NC(c1ccccc1)c1nccn1C (stereo unspecified)	12	14
O=C(C1CCCCN1Cc1ccccc1)N1CCC(CO)(Cc2ccc(Cl)cc2)CC1 (stereo unspecified)	-20	-25
CN=C1SC(CC(=O)NC(N)=O)C(=O)N1C (stereo unspecified)	-8	-13
Cc1cccc(C(=O)NCC(=O)Nc2cc(C)nn2C)c1	4	3
COc1ccccc1N1CCN(C(=O)CC(c2ccc(Cl)cc2)c2cn(C)c3ccccc23)CC1 (stereo unspecified)	5	8
COC(=O)C(c1ccccc1F)C1C=CC(NC(=O)c2cccc(OC(C)=O)c2C)C1 (stereo unspecified)	-2	-12

Complete entries, quoted from the list. Screens in order: NPYLR7 ag	NPYLR7 ag max-min
Listed for `Cc1ccc(NC(=O)CSc2c(C)[nH]c3ccccc23)cc1` : 3	2
Listed for `C=CCc1cccc(/C=N\NC(=O)c2cc(-c3ccccc3)nc3ccccc23)c1O` : -4	-7

Other structures.
SMILES	NPYLR7 ag	NPYLR7 ag max-min
O=C(Cc1ccccc1)NC1CCN(c2ccccc2C(=O)N2CCN(c3ccc(Cl)cc3)CC2)CC1	0	4
CC(C)N=C(N)N=C(N)Nc1ccc(Cl)cc1	6&17	9&6
CCCc1nnc(NC(=O)CN2CCc3[nH]nc(C4CCC4)c3C2)s1	1	-2
CC(Cc1ccccc1)N=C1NS(=O)(=O)c2cc([N+](=O)[O-])ccc21 (stereo unspecified)	4	3
COc1ccc(-c2nn(CC(=O)NCCc3ccccc3)c(=O)c3nc(C)sc23)cc1	0	-3

Bioassay records (PubChem)
